# Bioassay records (PubChem)
# NS1 function inh: inhibitors of influenza NS1 protein function. S. cerevisiae slowed by influenza A NS1, growth recovery by OD600. Potency, µM (series often up to 46.1 µM), for inactives: at the highest dose activity, positive = more growth. 0.4% of 270,000 active; further: actives are rising curves; nearly all actives have a fitted effect of over 50% in size
#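 OD600 was taken as the measure of yeast growth restored by compound in an NS1-expressing S. cerevisiae strain. Cells had been washed out of glucose medium and diluted 1:100 into galactose -URA medium, pH 6.0.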
# LASV entry inh: Lassa virus entry inhibition. 1.2% of 300,000 active. AID 540256. Lassa virus pseudotype entry inhibition, cell reporter; control for the full effect not named in the record. Potency, µM (highest dose often 37.9 µM), for the others: at the top dose activity change, negative = inhibition, hits mostly inhibitors; active means well fitted inhibition curve with a large enough effect; inconclusive means small, poorly fitted or top-dose-only effect, or effect the other way; inactive means flat fitted curve, though single readings scatter; tested in HEK293 cells; further: on the % scale 0 is the no-effect control and ±100 the full control effect; nearly all actives have a fitted effect of over 50% in size; luciferase read-out
# RE007 growth inh: less growth of the S. pombe RE007 Vpr strain | Potency, µM (titrated, usually from 92.2 µM), without a hit: at the top dose activity change, negative = less growth | 0.21% of 360,000 active | S. pombe RE007 Vpr strain, BacTiter-Glo ATP luminescence, 24 h; control for the full effect not named in the record | AID 651644; active = well fitted falling curve with a large enough effect; inconclusive = small, poorly fitted or top-dose-only effect; inactive = no such curve, though single readings can be large or run the other way;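 further: on the % scale 0 is the no-effect control and ±100 the full control effect; nearly all actives have a fitted effect of over 50% in size; the assay follows cell death caused by Vpr and the record does not say whether a fall means rescue or toxicity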
#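 Fission yeast strain RE007, carrying one chromosomally integrated HIV-1 vpr copy, was seeded at OD 0.01 in PMG+AL medium with 23 nL pinned compound. After 24 h at 30 °C and 99% humidity, viability was read by BacTiter-Glo luminescence.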
# Marburg entry inh: blocks Marburg virus binding to or entry into cells. Marburg virus pseudotyped entry inhibition, cell reporter; control for the full effect not named in the record; about a third of the inactives were read at about 46 µM. AID 540276. 1.8% of 300,000 active. Potency, µM (highest dose often 37.8 µM), for inactives: at the highest dose activity change, negative = inhibition, most hits filed as inhibitors; active = well fitted inhibition curve with a large enough effect; inconclusive = small, poorly fitted or top-dose-only effect, or effect the other way; inactive = flat fitted curve, though single readings scatter; tested in HEK293 cells; about a fifth of its hits are not listed in these tables; further: on the % scale 0 is the no-effect control and ±100 the full control effect; luciferase read-out
# Cruzain noTriton: inhibitors of Trypanosoma cruzi cruzain without detergent; P25779; purified cruzain, Z-FR-AMC fluorescence, no detergent; Potency, µM, inactives show max response, negative = inhibition, most hits filed as inhibitors; 2.3% of 200,000 active; AID 1476; active means well fitted curve in the direction sought with a large enough effect; inconclusive means small, poorly fitted or top-dose-only effect, or another doubt; inactive means no such curve, though single readings can be large; an effect the other way counts as inactive or inconclusive;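 further: plate controls were enzyme without inhibitor for no effect and buffer without enzyme for full effect; nearly all actives have a fitted effect of over 40% in size; top concentration of the series not given in the record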
# Target sequence (P25779 123-467 limits assumed): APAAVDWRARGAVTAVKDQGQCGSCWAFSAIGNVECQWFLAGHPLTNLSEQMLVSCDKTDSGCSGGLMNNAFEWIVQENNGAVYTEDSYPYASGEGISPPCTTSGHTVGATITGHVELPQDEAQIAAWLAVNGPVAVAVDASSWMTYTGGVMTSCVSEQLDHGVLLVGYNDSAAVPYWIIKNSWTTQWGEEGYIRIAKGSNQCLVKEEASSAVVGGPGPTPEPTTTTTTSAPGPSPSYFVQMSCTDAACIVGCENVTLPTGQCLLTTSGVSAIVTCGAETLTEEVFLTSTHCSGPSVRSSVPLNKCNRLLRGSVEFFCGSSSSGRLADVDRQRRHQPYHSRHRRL
#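 Purified cruzain at 1.5 nM, pre-incubated 15 min with compound at room temperature in 100 mM sodium acetate pH 5.5, 5 mM DTT, 0.00005% Triton X-100. Reaction started with 2 uM Z-FR-AMC; AMC fluorescence increase over 60 s gives rate.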
# StopGo reporter: lowers the luciferase signal of an FMDV 2A StopGo reporter; Potency, µM (titrated, usually from 57.9 µM), for the others: at the highest dose signal change, negative = less light; AID 1159524; 1.2% of 410,000 active; human cells with a luciferase reporter of 2A StopGo recoding; control for the full effect not named in the record; active = well fitted falling curve with a large enough effect; inconclusive = small, poorly fitted or top-dose-only effect; inactive = no such curve, though single readings can be large or run the other way; tested in HEK293T cells; further: on the % scale 0 is the no-effect control and ±100 the full control effect; nearly all actives have a fitted effect of over 45% in size; luciferase light after 4 h
# SARS PLP yeast: SARS-CoV PLP inhibition in yeast; S. cerevisiae expressing SARS-CoV PLpro, growth rescue; control for the full effect not named in the record; 0.19% of 330,000 active; Potency, µM (titrated, usually from 32.9 µM), for inactives: at the top dose activity, positive = growth rescue; AID 485353; further: 0% is about no effect; nearly all actives have a fitted effect of over 55% in size; growth read by luminescence after 48 h
# Cruzain Triton: inhibitors of Trypanosoma cruzi cruzain with detergent; 0.43% of 200,000 active; AID 1478; P25779; purified cruzain, Z-FR-AMC fluorescence, 0.01% Triton; Potency, µM, inactives show max response, negative = inhibition, actives largely listed as inhibitors; active means well fitted curve in the direction sought with a large enough effect; inconclusive means small, poorly fitted or top-dose-only effect, or another doubt; inactive means no such curve, though single readings can be large; an effect the other way counts as inactive or inconclusive;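 further: plate controls were neutral wells for no effect and buffer without enzyme for full effect; nearly all actives have a fitted effect of over 40% in size; top concentration of the series not given in the record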
#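 Purified cruzain (1.5 nM final) was preincubated with compounds for 15 min at room temperature in 100 mM sodium acetate pH 5.5, 5 mM DTT, 0.01% Triton X-100. Reaction started with 2 uM Z-FR-AMC; AMC fluorescence change over 60 s gave activity.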
# Active calls of the source: *; ? = inconclusive; . = no result given; & = joins results of further samples; [ ] = dose if it differs, or a comment. Unless noted, the call rests on the fitted dose curve; in most records, active means well fitted rising curve with a large enough effect; inconclusive means small, poorly fitted or top-dose-only effect; inactive means no such curve, though single readings can be large or run the other way. Potency means the concentration at half of the fitted maximal effect.
SMILES,NS1 function inh,LASV entry inh,RE007 growth inh,Marburg entry inh,Cruzain noTriton,StopGo reporter,SARS PLP yeast,Cruzain Triton
CCc1ccc(OCC(=O)NCC(c2ccc(Cl)cc2)N2CCCCC2)cc1 (stereo not drawn),-13%,-10%[46.1 µM],1%,?,.,-26%,-11%,.
COc1ccccc1CNC(=O)COC(=O)c1cc(C)nc2ccccc12,.,10%,8%,-13%,.,?,-5%,.
CCN(CC)C(=O)CSc1ccc(C(F)(F)F)cc1[N+](=O)[O-],15%,-3%,13%,0%,-8%,0%,8%,-2.6%
CC(C)c1ccc(N(CC(=O)NCc2ccc(F)cc2)C(=O)c2snc(C(N)=O)c2N)cc1,18%,-16%,-4%,?,.,-26%,2%,.
NC1(C(=O)O)CCCc2ccc(N(CCCl)CCCl)cc21 (stereo not drawn),.,?,1%,10µM*,.,-3%,.,.
CCN1CCN(c2ccc(NC(=O)COc3ccccc3Cl)cc2)CC1,4%,3%,-16%,?,-22%,-9%,-1%,-4.4%
O=C(Nc1ccc2c(c1)OCCO2)c1cccn(Cc2cccc([N+](=O)[O-])c2)c1=O,.,?,.,.,14%,0%,.,-6.8%
COc1cc(Cl)c(C)cc1NC(=O)CCc1c(C)nc2cc(-c3cccc(F)c3)nn2c1C,.,1%[46.1 µM],.,12%[46.1 µM],-4%,-12%,.,3.1%
O=C(Nc1nonc1NC(=O)C1CCCCC1)C1CCCCC1,-9%,?,4%,-13%,3%,0%,-2%,-17%
COc1ccccc1/C=C1\SC(=S)N(C(C(=O)O)c2ccccc2)C1=O (stereo not drawn),14%,.,2%,.,.,2%,0%,.
Cc1ccc(NC(=O)CSc2nc3c([nH]c4ccccc43)c(=O)n2C)cc1,-3%,.,4%,.,.,-13%,1%,.
CC/C(C)=N/Nc1nc2c(c(=O)[nH]c(=O)n2C)n1CCc1ccccc1,3%,17%[46.1 µM],15%,14%[46.1 µM],.,-7%,-1%,.
CN(C)c1ccc(/C=N/Nc2ccc(-n3ccnc3)nn2)cc1,-12%,15%,-12%,22%[46.1 µM],-7%,-2%,-21%,-7.5%
O=C(CSCc1ccccc1Cl)NNC(=O)c1ccccc1,-13%,3%,-5%,11%,-14%,6%,4%,4.0%
CSc1ccc(C2c3[nH]c4ccccc4c3CCN2C(=O)CCC2CCCC2)cc1 (stereo not drawn),.,?,.,.,10µM*,-6%,.,2.2%
COc1ccc(/C=C/C(=O)NCc2ccc(F)cc2)cc1S(=O)(=O)N1CCOCC1,8%,-1%,-8%,9%[46.1 µM],.,-3%,-2%,.
COc1ccc(C(=O)NC2CCN(S(=O)(=O)c3ccc(C)cc3)CC2)cc1,12%,.,-8%,.,.,-11%,1%,.
Cc1ccc(C(=O)Nc2cc(Cl)ccc2Oc2ccccc2)cc1[N+](=O)[O-],9%,8%,5%,28%,-12%,-10%,17%,4.2%
COCCN1C(=O)N(C)[C@@H](c2ccccc2)C(C(C)=O)=C1C,-1%,.,-3%,?,.,-9%,5%,.
COCCN1C(=O)N[C@@H](c2ccc(Br)cc2)C(C(C)=O)=C1C,-8%,8%,.,11%&11%&11%,-5%&-11%,.,-20%,3.5%&0.9%
OCC1(CO)COC(c2cccnc2)N1 (stereo not drawn),-4%,5%,-16%,17%,1%,8%,-3%,4.6%
COc1ccccc1CNS(=O)(=O)c1cc(CN2C(=O)c3cccnc3C2=O)ccc1OC,-14%,.,-5%,.,.,0%,-2%,.
CCOC(=O)c1ccc(NC(=O)Cn2cc(C(=O)C3CC3)c3ccccc32)cc1,.,?,.,-26%[46.1 µM],13%,-7%,.,-9.9%
CCCCn1nnnc1SCC(=O)NCc1ccccc1,3%,?,12%,17%[46.1 µM],14%,26%,-4%,3.0%
COc1ccc(-c2cc(C(F)(F)F)nc(S(C)(=O)=O)n2)cc1OC,-65%,?,-17%,?,?,?,-30%,-14%

# 3 entries from above, with values under each structure:
# Below each compound: NS1 function inh	LASV entry inh	RE007 growth inh	Marburg entry inh	Cruzain noTriton	StopGo reporter	SARS PLP yeast	Cruzain Triton
- CCN(CC)C(=O)CSc1ccc(C(F)(F)F)cc1[N+](=O)[O-]
→ 15%	-3%	13%	0%	-8%	0%	8%	-2.6%
- CC(C)c1ccc(N(CC(=O)NCc2ccc(F)cc2)C(=O)c2snc(C(N)=O)c2N)cc1
→ 18%	-16%	-4%	?	.	-26%	2%	.
- NC1(C(=O)O)CCCc2ccc(N(CCCl)CCCl)cc21 (stereo not drawn)
→ .	?	1%	10µM*	.	-3%	.	.

# (list continues)
SMILES,NS1 function inh,LASV entry inh,RE007 growth inh,Marburg entry inh,Cruzain noTriton,StopGo reporter,SARS PLP yeast,Cruzain Triton
COc1ccccc1C(=O)Nc1ccnn1C1CCN(CCCc2ccccc2)CC1,-13%,.,-13%,.,.,-18%,1%,.
Cc1ccc(C(=O)N2C(=O)c3cccc(N)c3C2=O)o1,-3%,28%,-18%,8%[46.1 µM],.,-3%,0%,.
COc1ccc(C)cc1N(CC(=O)O)S(=O)(=O)c1ccc(C)cc1,17%,27%,-2%,0%,-4%,-1%,-5%,3.0%
CC(C)n1c(SCC(=O)Nc2ccccc2N2CCOCC2)nc2c1c(=O)n(C)c(=O)n2C,-11%,-2%,10%,-28%,?,-24%,3%,-2.5%
CN(C)c1ccc(C(CC(=O)O)NC(=O)c2ccc(Cl)cc2)cc1 (stereo not drawn),-6%,-8%,-8%,-7%,-5%,-12%,17%,4.7%
Cc1ccc(C(=O)NC(=S)N2CCN(C(=O)OC(C)(C)C)CC2)cc1Br,1%,.,0%,.,.,-14%,-1%,.
Cc1ccc(C)c(S(=O)(=O)c2nnn3c2nc(NC2CCCCC2)c2sccc23)c1,.,-18%[46.1 µM],.,.,-28%,?,.,-6.4%
CCSc1nc2c(c(=O)[nH]c(=O)n2C)n1C,0%,24%,7%,8%,-6%,15%,3%,3.3%
Cc1ccccc1CSc1nnc(C)c(=O)n1N,-4%,?,-10%,0%,.,-3%,-1%,.
Cc1c(Cl)c([N+](=O)[O-])nn1CCCC(=O)Nc1sc2c(c1C#N)CCC2,13%,-16%,8%,15%,-8%,.,1%,-3.1%
CC(C)N(C(=O)CSc1nnc(CSc2ncccn2)n1C)C(C)C,-2%,.,-6%,.,.,-8%,1%,.
O=C(Nc1ccccc1Cl)C(Cl)C(=O)c1ccccc1 (stereo not drawn),.,5%,2%,8%[46.1 µM],.,90%[activator],-4%,.
O=C(c1ccc(Cl)cc1)N1CCC2(CC1)OCCO2,24%,.,9%,.,.,-2%,4%,.
CCCOC(=O)Nc1ccc(N2CCCCC2)cc1,-17%,?,-22%,?,2%,-75%,.,4.4%
CCOc1cccc(-c2nnc3sc(-c4cc(OC)c(OC)cc4OC)nn23)c1,?,.,.,-1%,0%,.,2%,-3.9%
COc1ccc(Cn2c(C)c(C)c(C#N)c2NC(=O)Nc2ccc(Cl)cc2)cc1,15%,-11%,-4%,?,-12%,-28%,?,-1.4%
O=C(Nc1cc(S(=O)(=O)N2CCOCC2)ccc1Cl)c1cc([N+](=O)[O-])ccc1Cl,.,?,6%,?,.,?,1%,.
Clc1cccc(N2CCN(Cc3nc(-c4ccccc4)no3)CC2)c1,-39%,.,-8%,.,-5%,-3%,-20%,-9.3%
C[C@H](NS(=O)(=O)c1ccc(F)cc1)C(=O)OCC(=O)c1c(N)n(C)c(=O)n(C)c1=O,.,5%,4%,2%[46.1 µM],.,-12%,5%,.
C/C(=N/OCO/N=C(/C)c1ccc(F)cc1)c1ccc(F)cc1,27%,3.2µM*,4%,?,0%,-4%,9%,-3.0%
COc1ccc(C(=O)COC(=O)CNC(=O)c2cccs2)cc1Br,-12%,25%,-8%,1%[46.1 µM],.,-12%,-3%,.
Cc1ccccc1NCCC(=O)Nc1ccc(F)cc1,-2%,-10%[46.1 µM],-10%,-9%[46.1 µM],.,17%,2%,.
Cc1cccc2cc(CNCC3CCCO3)c(Cl)nc12 (stereo not drawn),-1%,9%,9%,4%[46.1 µM],.,0%,1%,.
O=C(CSc1nc(-c2ccco2)cc(C(F)(F)F)n1)N1CCSCC1,-8%,20%,8%,-14%,12%,?,0%,-9.1%
Cc1ccccc1OCc1nc2c3cnn(C)c3ncn2n1,4%,18%,-1%[3.69 µM],23%,6%,49%[activator],7%,-5.0%

# The results go on.
SMILES,NS1 function inh,LASV entry inh,RE007 growth inh,Marburg entry inh,Cruzain noTriton,StopGo reporter,SARS PLP yeast,Cruzain Triton
Cc1ccc(CC(=O)Nc2cccc(C#N)c2)cc1,-9%,2%,36%,-9%,.,-6%,0%,.
COc1ccc(-c2cn(Cc3ccc4ccccc4c3)nn2)cc1,19%,.,2%,.,.,29%,6%,.
Cc1ccc(-n2nc(CO)c(C(=O)NCC(c3ccccc3)c3ccccc3)n2)cc1,.,-2%[46.1 µM],.,0%[46.1 µM],3%,-15%,.,1.0%
COc1cccc(NC(=O)CSc2nnc(NC(=O)C3CCC3)s2)c1,5%,0%[46.1 µM],4%,1%[46.1 µM],.,-16%,4%,.
O=C(Nc1sc2c(c1C(=O)NCC1CCCO1)CCC2)c1cc(=O)c2cc(Cl)ccc2o1 (stereo not drawn),.,20%[46.1 µM],.,-14%[46.1 µM],-1%,4%,.,-1.4%
CNC(C)C#Cc1c(-c2cc(OC)c(OC)c(OC)c2)noc1C (stereo not drawn),23%,.,-7%,.,.,-9%,13%,.
O=C(NCc1ccc(Cl)cc1)C1CC(O)CN1S(=O)(=O)c1ccc(Cl)cc1 (stereo not drawn),1%,-13%[46.1 µM],-8%,-2%[46.1 µM],.,0%,1%,.
CC(OC(=O)c1ccc([N+](=O)[O-])cc1)C(=O)NCC1CCCCC1 (stereo not drawn),.,7%,-25%,17%,.,?,3%,.
COc1ccc2oc(=O)c(-c3nnc(NCc4ccco4)s3)cc2c1,-3%,-28%,5%,?,20%,4%,-2%,4.6%
CCOC(=O)CNC(=O)CN1C(=O)CCSc2ccccc21,14%,1%,-20%,14%,11%,-7%,-2%,-2.3%
